Cruzain noTriton: cruzain (T. cruzi) inhibition without detergent. P25779. purified cruzain, Z-FR-AMC fluorescence, no detergent. Potency, µM, without a hit: max response, negative = inhibition, actives largely listed as inhibitors. 200,000 compounds, 2.3% hits. AID 1476;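 also: plate controls were enzyme without inhibitor for no effect and buffer without enzyme for full effect; nearly all actives have a fitted effect of over 40% in size; top concentration of the series not given in the record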
Target sequence (P25779 123-467 limits assumed): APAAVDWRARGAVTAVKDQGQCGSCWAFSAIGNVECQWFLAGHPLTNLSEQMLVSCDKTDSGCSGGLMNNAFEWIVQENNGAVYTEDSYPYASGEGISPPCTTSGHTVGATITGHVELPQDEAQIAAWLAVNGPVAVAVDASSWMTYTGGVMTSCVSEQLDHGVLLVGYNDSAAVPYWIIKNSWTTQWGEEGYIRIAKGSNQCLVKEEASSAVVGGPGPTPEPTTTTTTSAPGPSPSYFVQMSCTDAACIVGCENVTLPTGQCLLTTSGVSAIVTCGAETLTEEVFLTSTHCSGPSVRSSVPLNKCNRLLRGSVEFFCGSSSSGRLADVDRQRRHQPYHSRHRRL
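Detergent-free condition (0.00005% Triton X-100) in acetate buffer pH 5.5 with DTT. 1.5 nM enzyme and compound were pre-mixed 15 min, then 2 uM Z-FR-AMC substrate added; reaction progress from fluorescence change between first and third reads (60 s).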
Cruzain inh Det: inhibitors of Trypanosoma cruzi cruzain with detergent; P25779; purified cruzain, Z-FR-AMC fluorescence, 0.01% Triton; Potency, µM, without a hit: max response, negative = inhibition, actives largely listed as inhibitors; 200,000 compounds, 0.43% hits; AID 1478;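 also: plate controls were neutral wells for no effect and buffer without enzyme for full effect; nearly all actives have a fitted effect of over 40% in size; top concentration of the series not given in the record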
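In this qHTS format, compounds are incubated with 1.5 nM cruzain for 15 min at room temperature before 2 uM Z-FR-AMC is added. Release of AMC is followed at 360/450 nm, and progress is taken as the 60 s fluorescence difference.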
RE007 growth inh: less growth of the S. pombe RE007 Vpr strain. 360,000 compounds, 0.21% hits. Potency, µM (series often up to 92.2 µM), inactives show top-dose activity change, negative = less growth. AID 651644. S. pombe RE007 Vpr strain, BacTiter-Glo ATP luminescence, 24 h; control for the full effect not named in the record; active = well fitted falling curve with a large enough effect; inconclusive = small, poorly fitted or top-dose-only effect; inactive = no such curve, though single readings can be large or run the other way;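 also: % is scaled to controls: 0 for no effect and ±100 for the full control effect; nearly all actives have a fitted effect of over 50% in size; the assay follows cell death caused by Vpr and the record does not say whether a fall means rescue or toxicity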
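Fission yeast RE007 carrying one integrated HIV-1 vpr copy, seeded at OD 0.01 in PMG+AL medium with 23 nL pinned compound. Grown 24 h at 30 degrees; viability read by BacTiter-Glo luminescence after 5 min.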
Lassa entry inh: blocks Lassa virus binding to or entry into cells; Lassa virus pseudotype entry inhibition, cell reporter; control for the full effect not named in the record; Potency, µM (doses to about 37.9 µM), for inactives: at the highest dose activity change, negative = inhibition, most hits filed as inhibitors; 300,000 compounds, 1.2% hits; active means well fitted inhibition curve with a large enough effect; inconclusive means small, poorly fitted or top-dose-only effect, or effect the other way; inactive means flat fitted curve, though single readings scatter; tested in HEK293 cells; also: % is scaled to controls: 0 for no effect and ±100 for the full control effect; nearly all actives have a fitted effect of over 50% in size; luciferase read-out
StopGo reporter: FMDV 2A StopGo reporter, luciferase signal; human cells with a luciferase reporter of 2A StopGo recoding; control for the full effect not named in the record; Potency, µM (highest dose often 57.9 µM), for the others: top-dose signal change, negative = less light; 410,000 compounds, 1.2% hits; AID 1159524; active = well fitted falling curve with a large enough effect; inconclusive = small, poorly fitted or top-dose-only effect; inactive = no such curve, though single readings can be large or run the other way; tested in HEK293T cells; also: % is scaled to controls: 0 for no effect and ±100 for the full control effect; nearly all actives have a fitted effect of over 45% in size; luciferase light after 4 h
NS1 function inh: inhibitors of influenza NS1 protein function; 270,000 compounds, 0.4% hits; S. cerevisiae slowed by influenza A NS1, growth recovery by OD600; Potency, µM (doses to about 46.1 µM), for inactives: at the top dose activity, positive = more growth; active means well fitted rising curve with a large enough effect; inconclusive means small, poorly fitted or top-dose-only effect; inactive means no such curve, though single readings can be large or run the other way; also: nearly all actives have a fitted effect of over 50% in size
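Compounds were scored for reversing the slow growth caused by influenza A NS1 in S. cerevisiae, measured by optical density at 600 nm. Assay medium contained 2% galactose at pH 6.0; NS1-free yeast of the same strain were the positive control.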
Marburg entry inh: blocks Marburg virus binding to or entry into cells; Marburg virus pseudotyped entry inhibition, cell reporter; control for the full effect not named in the record; about a third of the inactives were read at about 46 µM; Potency, µM (doses to about 37.8 µM), for inactives: top-dose activity change, negative = inhibition, hits mostly inhibitors; 300,000 compounds, 1.8% hits; active = well fitted inhibition curve with a large enough effect; inconclusive = small, poorly fitted or top-dose-only effect, or effect the other way; inactive = flat fitted curve, though single readings scatter; tested in HEK293 cells; about a fifth of its hits are not listed in these tables; also: % is scaled to controls: 0 for no effect and ±100 for the full control effect; luciferase read-out
SARS PLP yeast: SARS-CoV PLP inhibition in yeast; S. cerevisiae expressing SARS-CoV PLpro, growth rescue; control for the full effect not named in the record; Potency, µM (doses to about 32.9 µM), for the others: at the highest dose activity, positive = growth rescue; 330,000 compounds, 0.19% hits; AID 485353; active means well fitted rising curve with a large enough effect; inconclusive means small, poorly fitted or top-dose-only effect; inactive means no such curve, though single readings can be large or run the other way; also: 0% is about no effect; nearly all actives have a fitted effect of over 55% in size; growth read by luminescence after 48 h
Active calls of the source: *; [ ] = dose if it differs, or a comment. Unless noted, calls follow the shape of the dose curve; as a rule, active = well fitted curve in the direction sought with a large enough effect; inconclusive = small, poorly fitted or top-dose-only effect, or another doubt; inactive = no such curve, though single readings can be large; an effect the other way counts as inactive or inconclusive. Potency is read from the fitted curve at half-maximal effect. Compounds were not picked by outcome, and some 4.5% of all compounds hit somewhere here.

For Cc1nc2ccccc2c(=O)n1/N=C/c1ccc(N(C)C)cc1 the results were Cruzain noTriton -8%, Cruzain inh Det -8.6%, RE007 growth inh 14%, Lassa entry inh 5%, NS1 function inh -104%, Marburg entry inh inconclusive and SARS PLP yeast -4%.
Cc1cccc(NS(=O)(=O)c2cccc3nsnc23)c1 was read as Cruzain noTriton -2%, Cruzain inh Det -2.0%, RE007 growth inh 10%, Lassa entry inh 4%, StopGo reporter 54%[activator], NS1 function inh -14%, Marburg entry inh 16% and SARS PLP yeast 4%.
CCNc1c([N+](=O)[O-])c(=O)oc2ccccc12 was read as RE007 growth inh -1%, Lassa entry inh 3%[46.1 µM], StopGo reporter -3%, NS1 function inh 2%, Marburg entry inh -2%[46.1 µM] and SARS PLP yeast 0%.
`Cc1ccc(S(=O)(=O)NCc2cccnc2)cc1C` gave RE007 growth inh -14%, Lassa entry inh 25%[46.1 µM], StopGo reporter 36%[activator], NS1 function inh 16%, Marburg entry inh inconclusive and SARS PLP yeast 1%.
`c1ccc2nc3c(nc2c1)[nH]c1ccccc13` gave Cruzain noTriton -6%, Cruzain inh Det 0.6%, RE007 growth inh -15%, Lassa entry inh inconclusive, StopGo reporter 12%, NS1 function inh -36%, Marburg entry inh inconclusive and SARS PLP yeast -17%.
Screening CCOC(=O)/C(C#N)=C/N1CCOCC1 returned RE007 growth inh 7%, Lassa entry inh 5%, StopGo reporter -11%, NS1 function inh 1%, Marburg entry inh 8%[46.1 µM] and SARS PLP yeast 4%.
For Cn1c(=O)c2c(nc(CN3CCN(CCO)CC3)n2Cc2ccccc2Cl)n(C)c1=O the results were RE007 growth inh 0%, StopGo reporter -12%, NS1 function inh 10% and SARS PLP yeast -4%.
Screening Cc1ccc(CNC(=O)CCS(=O)(=O)c2cccc3nonc23)cc1 returned Cruzain noTriton 2%, Cruzain inh Det -1.6%, RE007 growth inh -1%, Lassa entry inh -21%, StopGo reporter 2%, NS1 function inh -7%, Marburg entry inh 16% and SARS PLP yeast -2%.
`O=C(O)c1ccc(-c2ccc(O)c(F)c2)cc1` gave Cruzain noTriton -5%, Cruzain inh Det 1.2%, RE007 growth inh -5%, StopGo reporter -8%, NS1 function inh -56% and SARS PLP yeast 2%.
Cc1c(C(=O)O)cccc1-n1c(C)cc(/C=C(/C#N)C(=O)NCc2ccccc2)c1C was read as RE007 growth inh 3%, Lassa entry inh -3%[46.1 µM], StopGo reporter -3%, NS1 function inh inconclusive, Marburg entry inh inconclusive and SARS PLP yeast 0%.
`Cc1c(C(=O)Nc2ccc3c(c2)OCO3)sc2nc(-c3ccccc3)cn12` gave Cruzain noTriton -3%, Cruzain inh Det -7.1%, RE007 growth inh -5%, Lassa entry inh inconclusive, StopGo reporter -30%, NS1 function inh 1%, Marburg entry inh -14% and SARS PLP yeast 6%.
Screening Cc1ccc(CNC(=O)CN2C(=O)C3(SCC(=O)N3c3cc(C)cc(C)c3)c3ccccc32)cc1 (configuration not stated) returned Cruzain noTriton -26%, Cruzain inh Det -4.9%, Lassa entry inh -23%[46.1 µM] and StopGo reporter 6%.
Screening COCCN1C(=O)CS/C1=C(/C#N)C(=O)NCc1ccco1 returned RE007 growth inh -9%, Lassa entry inh -7%[46.1 µM], StopGo reporter 4%, Marburg entry inh -14%[46.1 µM] and SARS PLP yeast 3%.
For CCOCC(=O)Nc1ccc(S(=O)(=O)Nc2ncccn2)cc1 the results were Cruzain noTriton 1%, Cruzain inh Det 4.0%, RE007 growth inh -13%, Lassa entry inh 12%, StopGo reporter -7%, NS1 function inh 4%, Marburg entry inh 12%[46.1 µM] and SARS PLP yeast 4%.
O=C(NCCCc1ccccc1)C(=O)NCC1OCCN1S(=O)(=O)c1cc(F)ccc1F (configuration not stated) was read as RE007 growth inh -14%, Lassa entry inh 7%, StopGo reporter inconclusive and Marburg entry inh inconclusive.
Screening CCC(C(=O)NCCc1ccco1)n1nc(C)c2c(C)n(-c3ccccc3)nc2c1=O (configuration not stated) returned RE007 growth inh -6%, StopGo reporter -10%, NS1 function inh 7% and SARS PLP yeast inconclusive.
CCCCCn1ccc(=N)cc1 was read as Cruzain noTriton 0%, Cruzain inh Det 4.7%, RE007 growth inh -5%, Lassa entry inh -29%, StopGo reporter -6%, NS1 function inh 4%, Marburg entry inh -29% and SARS PLP yeast 2%.
CCCCn1nnnc1NCc1ccc(N(CC)CC)cc1 was read as Cruzain noTriton -2%, Cruzain inh Det 4.0%, RE007 growth inh -5%, Lassa entry inh -14%, StopGo reporter -4%, NS1 function inh -1%, Marburg entry inh -4% and SARS PLP yeast 3%.
Screening COc1cc(/C=C(\NC(C)=O)C(=O)O)cc(OC)c1OC returned RE007 growth inh 6%, StopGo reporter 0%, NS1 function inh 7% and SARS PLP yeast 1%.
`O=C(COc1ccc([N+](=O)[O-])cc1)NNC(=O)Nc1cccc(F)c1` gave RE007 growth inh 7%, Lassa entry inh inconclusive, StopGo reporter -3%, NS1 function inh -71%, Marburg entry inh 1% and SARS PLP yeast -7%.
Screening O=C(O)c1ccccc1NS(=O)(=O)c1cccc(NS(=O)(=O)c2cc(Br)ccc2Br)c1 returned RE007 growth inh 6%, Lassa entry inh -4%, StopGo reporter -7%, Marburg entry inh inconclusive and SARS PLP yeast 1%.
For CC1=C([N+](=O)[O-])C(c2ccccc2Cl)NC(=O)N1 (configuration not stated) the results were RE007 growth inh -15%, Lassa entry inh inconclusive, StopGo reporter -4%, NS1 function inh 9%, Marburg entry inh 4% and SARS PLP yeast 1%.
Cn1nc(-c2ccc(Cl)cc2)cc1NC(=O)CSCC(=O)O was read as RE007 growth inh -11%, Lassa entry inh -6%, StopGo reporter -12%, NS1 function inh -1%, Marburg entry inh -13% and SARS PLP yeast 2%.
For COc1ccc(Cc2nnc(NC(=O)c3cc(OC)c(OC)c(OC)c3)s2)cc1 the results were RE007 growth inh 3%, StopGo reporter -15%, NS1 function inh 14% and SARS PLP yeast 1%.
Screening Cc1ccc(CNC(=O)c2c(C)oc3nc(C)nc(N4CCOCC4)c23)cc1 returned Cruzain noTriton -11%, Cruzain inh Det 0.2%, Lassa entry inh 16%[46.1 µM] and StopGo reporter -7%.
S=C(Nc1ccc(N2CCOCC2)cc1)Nc1ccc2nc(-c3ccco3)c(-c3ccco3)nc2c1 was read as Cruzain noTriton -6%, Cruzain inh Det inconclusive, RE007 growth inh 0%, Lassa entry inh 0%, StopGo reporter -15%, NS1 function inh 6%, Marburg entry inh -15% and SARS PLP yeast -12%.
`COc1ccc(NC(=O)CSc2nc3ccccc3nc2N2CCC(C)CC2)cc1` gave Cruzain noTriton inconclusive, Cruzain inh Det -6.8%, Lassa entry inh inconclusive, StopGo reporter 4% and Marburg entry inh inconclusive.
Cc1ccccc1C(=O)Nc1nc(-c2nnn(-c3ccc(C(C)C)cc3)c2C)ns1 was read as Cruzain noTriton -15%, Cruzain inh Det -0.3%, Lassa entry inh 33%[46.1 µM] and StopGo reporter -19%.
`C=CCn1c(=N)n(CC(=O)c2ccc(Cl)cc2)c2ccccc21` gave RE007 growth inh -10%, Lassa entry inh inconclusive, StopGo reporter -10%, NS1 function inh -3%, Marburg entry inh inconclusive and SARS PLP yeast 0%.
`CCCCn1c(=N)n(CC(=O)O)c2ccccc21` gave RE007 growth inh 1%, Lassa entry inh 5%, StopGo reporter -12%, NS1 function inh 3%, Marburg entry inh 11%[46.1 µM] and SARS PLP yeast 1%.
`CCOC(=O)Nc1ccc2c(CN3CCN(S(=O)(=O)c4ccccc4F)CC3)cc(=O)oc2c1` gave RE007 growth inh -8%, Lassa entry inh inconclusive, StopGo reporter -7%, Marburg entry inh inconclusive and SARS PLP yeast 0%.
For COc1ccc(NC(=O)COc2ccc(S(=O)(=O)NC3CCCCC3)cc2)cc1OC the results were Cruzain noTriton -4%, Cruzain inh Det -3.0%, Lassa entry inh -15%[46.1 µM], StopGo reporter 6% and Marburg entry inh inconclusive.
CCN(CC)S(=O)(=O)c1ccc(C(=O)NCC(c2ccc(OC)cc2)N2CCOCC2)cc1 (configuration not stated) was read as RE007 growth inh 5%, StopGo reporter -25%, NS1 function inh -4% and SARS PLP yeast 2%.
`CC(OC(=O)c1cc(=O)[nH]c2ccccc12)C(=O)Nc1ccccc1F` (configuration not stated) gave RE007 growth inh -1%, Lassa entry inh 2%, StopGo reporter -13%, Marburg entry inh inconclusive and SARS PLP yeast 1%.
`CCN1CCN(c2cc(C)c3cc(NC(=S)N4CCCC4)ccc3n2)CC1` gave RE007 growth inh -5%, Lassa entry inh inconclusive, StopGo reporter 5%, NS1 function inh 1%, Marburg entry inh inconclusive and SARS PLP yeast 3%.
`COc1ccc(N2CCN(CC(=O)Nc3ncc(C)s3)CC2)cc1` gave RE007 growth inh -10%, StopGo reporter -16%, NS1 function inh -2% and SARS PLP yeast 2%.
`CC(C)Cc1cc(C(=O)N2CCCC(CO)(Cc3ccc(F)cc3)C2)no1` (configuration not stated) gave RE007 growth inh 5%, StopGo reporter -23%, NS1 function inh -16% and SARS PLP yeast -1%.
Screening O=C1CN(C(=O)N[C@@H](Cc2ccccc2)C(=O)N[C@@H](C(=O)O)c2ccccc2)c2ccccc2N1 returned RE007 growth inh 15%, StopGo reporter -16%, NS1 function inh 12% and SARS PLP yeast -9%.
Screening O=C(NCc1ccc2c(c1)CCO2)Nc1ccccc1 returned RE007 growth inh 3%, Lassa entry inh -6%, StopGo reporter 36%[activator], NS1 function inh -3%, Marburg entry inh inconclusive and SARS PLP yeast -1%.
CCOc1ncccc1C(=O)OCc1ccccc1 was read as Cruzain noTriton -2%, Cruzain inh Det 0.5%, RE007 growth inh -9%, Lassa entry inh 14%[46.1 µM], StopGo reporter -2%, NS1 function inh 13%, Marburg entry inh 5% and SARS PLP yeast 18%.
`Cc1cc(C)c(C#N)c(SCC(=O)N(CCC#N)c2ccc3c(c2)OCCO3)n1` gave RE007 growth inh -20%, Lassa entry inh inconclusive, StopGo reporter -19%, Marburg entry inh -2% and SARS PLP yeast 3%.

Screening data from PubChem BioAssay.
